Compound activity: PubChem BioAssay, several laboratories
Bfl-1 A1 inh: inhibitors of the anti-apoptotic protein A1, read as caspase activation; MEF A1-2A-BIM cells, Caspase-Glo 3/7 luminescence, 3 h; percent of clofoctol response, vehicle zero; caspase activation, % (concentration not given with the values); 0.066% of 330,000 active;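 active = over half of replicate activation scores above 10%, or exactly half above 10 with the replicate mean above 10; inconclusive = replicate mean below 10 yet half the replicates above 10; inactive = over half of replicates below 10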;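 also: wells of about 30 µL received 50 nL stock; many hits fall short of the cut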
Calb FLC: affects C. albicans growth with fluconazole. C. albicans CaCi-2 (fluconazole-resistant clinical isolate) + fluconazole, Alamar Blue growth, 48 h. growth inhibition, % (concentration not given with the values). 0.57% of 300,000 active;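 active = most replicates above 75%; inconclusive = exactly half above 75%; inactive = most below 75%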;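 also: all wells also contain fluconazole at 8 µg/ml as a sub-toxic cotreatment; 0% = median of DMSO wells and 100% = median of geldanamycin control wells; wells of about 8 µL received 7.5 nL stock; the first replicate is given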
Beta apoptosis: blocks beta cell apoptosis | INS-1E cytokine-induced death, ATP luminescence, 48 h; percent of positive-control rescue, neutral wells zero | protection from apoptosis, % (no concentration beside the values) | 0.8% of 300,000 active | AID 435005;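 active = all replicates at 75% or more, or half of them and the mean; inconclusive = half reach 75% but not the mean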;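 also: 0% = cytokine-treated negative control wells and 100% = positive control rescue; higher means more ATP so stronger rescue from cytokine killing; wells of about 40 µL received 100 nL stock; the first replicate is given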
Vif A3G: HIV-1 Vif–A3G interaction blockers – biochemical, TR-FRET, GST-Vif 1-94, biotin-A3G peptide, dose response retest, primary screen (AID 1117319); TR-FRET GST-Vif / biotin-A3G peptide binding; higher % means a stronger effect; test concentration not given here; strong numbers were not always called active; inhibition, %, or IC50 in µM where a hit was titrated; 0.57% of 260,000 active;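 active = above the screen mean plus three standard deviations and confirmed in dose response; inconclusive = results disagree or hit not tested in dose response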;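 also: Vif residues 1-94 fused to GST binding biotinylated APOBEC3G peptide 110-148; 0% = full assay without inhibitor and 100% = GST in place of GST-Vif; retest series ran down from 100 µM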
T cruzi inh: T. cruzi replication inhibition. T. cruzi beta-gal in NIH3T3, luminescence, 90 h. inhibition, % (concentration not given with the values). 1.4% of 300,000 active. AID 1885;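 active = mean inhibition across valid replicates above about 55%, limit read from the data; inconclusive = mean below that limit but half or more replicates reach it; inactive = mean below it, under half of replicates reach it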;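 also: signal also drops with host cell toxicity which is not excluded here; 0% = plate median of DMSO wells and 100% = zero luminescence signal; higher percent means less beta-gal luminescence so fewer parasites; stock transfer was 50 nL into about 50 µL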
LANA-H2B inh: blocks KSHV LANA binding to histone H2A/H2B; cell-free LANA-H2A/H2B peptide, fluorescence polarization; inhibition, % (no concentration beside the values); 0.6% of 320,000 active; AID 2629; in the data active = inhibition mostly above about 10%, no sharp cut-off; inactive = mostly below about 6.7%;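 also: stock transfer was 7.5 nL into about 10 µL; 0% = median of vehicle wells and 100% = median of positive control wells; one replicate is shown; the record names a cut of 25% in any replicate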
Target sequence (Q9QR71 whole entry, looked up): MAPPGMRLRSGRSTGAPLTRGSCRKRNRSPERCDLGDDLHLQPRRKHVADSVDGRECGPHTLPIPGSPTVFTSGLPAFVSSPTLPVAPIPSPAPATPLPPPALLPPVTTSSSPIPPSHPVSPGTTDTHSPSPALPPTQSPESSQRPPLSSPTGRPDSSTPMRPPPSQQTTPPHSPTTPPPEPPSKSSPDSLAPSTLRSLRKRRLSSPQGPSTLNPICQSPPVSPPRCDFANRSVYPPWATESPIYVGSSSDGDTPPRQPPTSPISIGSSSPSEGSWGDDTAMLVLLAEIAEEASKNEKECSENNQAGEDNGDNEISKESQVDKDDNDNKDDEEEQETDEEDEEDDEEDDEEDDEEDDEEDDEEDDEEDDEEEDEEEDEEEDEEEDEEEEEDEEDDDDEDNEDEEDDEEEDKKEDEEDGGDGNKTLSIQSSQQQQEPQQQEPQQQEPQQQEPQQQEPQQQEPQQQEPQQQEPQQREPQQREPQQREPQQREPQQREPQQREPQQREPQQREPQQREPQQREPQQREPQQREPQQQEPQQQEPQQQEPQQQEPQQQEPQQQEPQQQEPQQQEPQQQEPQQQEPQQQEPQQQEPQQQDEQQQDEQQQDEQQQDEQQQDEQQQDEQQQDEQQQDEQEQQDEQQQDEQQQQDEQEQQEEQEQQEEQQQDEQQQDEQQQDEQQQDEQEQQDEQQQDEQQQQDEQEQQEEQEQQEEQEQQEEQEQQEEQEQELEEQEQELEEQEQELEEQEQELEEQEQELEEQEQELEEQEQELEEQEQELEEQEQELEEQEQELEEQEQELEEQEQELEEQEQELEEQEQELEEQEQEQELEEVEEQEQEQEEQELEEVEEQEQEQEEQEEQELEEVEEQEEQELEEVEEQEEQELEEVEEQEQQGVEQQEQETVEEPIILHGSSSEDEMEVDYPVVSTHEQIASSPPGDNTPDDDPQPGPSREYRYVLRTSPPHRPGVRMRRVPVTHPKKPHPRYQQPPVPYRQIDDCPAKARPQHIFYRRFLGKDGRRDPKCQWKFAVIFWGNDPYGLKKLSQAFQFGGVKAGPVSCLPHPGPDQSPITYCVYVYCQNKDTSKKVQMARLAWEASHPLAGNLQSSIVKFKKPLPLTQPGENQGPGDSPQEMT
RanGTP-Impb inh: disruptors of Ran-importin-beta complex formation – biochemical, FRET, CFP-Ran, YFP-importin-beta, homogeneous, primary screen. cell-free CFP-Ran/YFP-importin-beta FRET ratio. inhibition, % (no concentration beside the values). 1.1% of 300,000 active. AID 2216;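 active = most replicates above 15%; inconclusive = exactly half above 15%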;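 also: 0% = DMSO wells and 100% = Ran loaded with GDP instead of GTP; wells of about 40 µL received 100 nL stock; the first replicate is given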
AF4-AF9 inh: MLL-AF4/AF9 protein interaction inhibition; P42568; AlphaScreen, biotin-AF4 peptide binding to FLAG-AF9; inhibition, % at 10 µM; 0.47% of 350,000 active; AID 651704;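 active = every replicate reaching a set inhibition limit, whatever the replicate mean, cut at about 25% in these data; inconclusive = mean inhibition reaches that limit but some replicates miss it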;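 also: 0% = plate neutral control median and 100% = total signal loss; the record names both 10 and 1 µM as test concentration; the first replicate is given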
The depositor's hits bear a star; u = inconclusive; x = no result given. Outcome played no part in choosing rows; about 4.3% have a hit in one of these screens.

No.	molecule	Bfl-1 A1 inh	Calb FLC	Beta apoptosis	Vif A3G
1	CCc1ccccc1NC(=O)Cn1nc(C(F)(F)F)cc1C1CC1	0.2	-5.2	-2.1	7.4%
2	CCNc1ncnc2c1cnn2C	-1.5	-23.4	-10.7	-3.3%
3	O=C(CCCCCN1C(=O)[C@@H]2Cc3ccccc3CN2C1=O)Nc1cccc(F)c1	0.4	0.3	-1.0	x
4	CC(SCC(=O)O)c1nc2ccccc2[nH]1 (stereo not drawn)	0.3	-4.0	-0.2	5.0%
5	CCN(CC)S(=O)(=O)c1ccc(C(=O)Nc2cccc(C)c2)cc1	0.2	0.8	-2.0	-1.4%
6	Cc1ccc(/C=C2/C(=O)N=C(N)N2C)s1	0.1	-6.5	x	-3.0%
7	O=C(COc1ccccc1)Nc1cc(C(F)(F)F)ccc1N1CCCC1	0.8	-0.4	-1.5	-5.8%
8	COC(C[C@H]1O[C@H]1C(=O)[C@@H](C)OCc1ccccc1)OC	1.6	6.3	-6.4	x
9	CCSc1nc2c(c(=O)n1-c1ccc(F)cc1)SCC2	-0.1	8.2	x	-5.9%
10	Cc1c(N(C)S(=O)(=O)c2cc(C(=O)Nc3ccccn3)ccc2Cl)c(=O)n(-c2ccccc2)n1C	-0.1	2.7	3.4	-13.1%
11	COc1ccc(NC(=O)CCS(=O)(=O)c2ccc3nc(C)sc3c2)cc1OC	0.9	-1.3	-2.6	x
12	COc1ccc(CCNC(=O)CCc2cc(OC)c(OC)c(OC)c2)cc1OC	0.8	0.9	1.7	-7.5%

No.	T cruzi inh	LANA-H2B inh	RanGTP-Impb inh	AF4-AF9 inh
1	-18.6	0.0	5.2	-18.3
2	-3.3	1.3	-0.5	2.2
3	-8.2	2.2	1.9	-8.1
4	3.2	1.7	5.6	2.4
5	4.7	-2.0	-0.3	x
6	-6.3	-1.3	-4.9	0.6
7	9.2	0.8	-1.9	x
8	6.9	-6.1	2.3	-2.5
9	23.4	1.2	4.9	x
10	4.9	5.3	-4.6	0.4
11	0.8	1.1	0.1	6.9
12	-1.6	4.1	0.0	-3.4

Entries of single compounds as entered above. Screens in order: Bfl-1 A1 inh | Calb FLC | Beta apoptosis | Vif A3G | T cruzi inh | LANA-H2B inh | RanGTP-Impb inh | AF4-AF9 inh
Cc1c(N(C)S(=O)(=O)c2cc(C(=O)Nc3ccccn3)ccc2Cl)c(=O)n(-c2ccccc2)n1C is entered as -0.1 | 2.7 | 3.4 | -13.1% | 4.9 | 5.3 | -4.6 | 0.4
CCNc1ncnc2c1cnn2C is entered as -1.5 | -23.4 | -10.7 | -3.3% | -3.3 | 1.3 | -0.5 | 2.2

The list continues:
No.	molecule	Bfl-1 A1 inh	Calb FLC	Beta apoptosis	Vif A3G
13	Cc1nonc1OCCn1nnnc1N	-0.7	-1.3	x	16.2%
14	CCOC(=O)C1CCN(C(=O)CCC(=O)NNc2nc3ccccc3c3nc(C)nn23)CC1	0.6	-2.5	-5.2	x
15	O=S(=O)(c1ccc2oc(=S)[nH]c2c1)N1CCCCC1	2.0	-1.9	-1.7	-8.7%
16	CC(C)C[C@H](NC(=O)c1nc[nH]c1C(=O)N1CCNCC1)C(=O)OCc1ccccc1	0.3	-39.0	-0.7	x
17	O=C(NNC(=O)c1ccc2ncccc2c1)c1ccc(Cl)cc1	0.3	-1.3	-8.1	x
18	COc1ccc(NC(=O)CSC2CC(=O)N(c3ccc4c(c3)OCCO4)C2=O)cc1 (stereo not drawn)	-0.5	4.7	-10.6	-8.4%
19	O=C(c1ccc2snnc2c1)N1CCOCC1	0.4	-0.3	-2.0	25.2%
20	COc1cc2c(cc1OC)C(c1ccccc1)N(C(=O)CSCC(=O)O)CC2 (stereo not drawn)	0.9	-9.5	-15.5	-12.6%
21	CCCCCC1CC(COc2ccccc2)OC1=O (stereo not drawn)	-0.5	-12.7	-5.5	-9.5%
22	COc1ccc(CCNC(=S)Nc2cccc3ccccc23)cc1	0.2	-10.3	8.9	x
23	COc1cc(OC)cc(-c2nc(SCC(=O)Nc3ccccc3F)n[nH]2)c1	0.0	21.1	-4.7	-1.0%
24	N#CC1=C(N)N(c2ccccc2)C2=C(C(=O)CCC2)C1c1ccccc1 (stereo not drawn)	1.4	-7.8	-0.7	u

No.	T cruzi inh	LANA-H2B inh	RanGTP-Impb inh	AF4-AF9 inh
13	-20.9	6.8	2.4	1.8
14	-6.2	-4.9	-2.1	-7.4
15	-5.2	6.3	1.6	1.5
16	-3.3	-0.6	3.7	x
17	7.1	-2.8	-3.7	-2.7
18	-2.4	-1.6	4.3	x
19	-12.4	8.5	u	x
20	-10.5	-4.6	-1.4	-0.7
21	-1.4	1.3	-0.5	-2.4
22	7.4	3.2	-5.6	x
23	-24.4	-4.0	2.9	-2.0
24	5.2	-0.9	-1.9	x

(next part)
No.	molecule	Bfl-1 A1 inh	Calb FLC	Beta apoptosis	Vif A3G
25	O=C(O)c1cccc(S(=O)(=O)Nc2ccccc2-c2ccccc2)c1	0.7	0.0	3.5	-1.8%
26	Cc1ccc(S(=O)(=O)Nc2nc(C)c(C(=O)Nc3ccccc3)s2)cc1	1.2	-2.6	-3.3	-0.6%
27	COc1cccc(-n2cnc3cccc(N)c32)c1	0.2	2.7	-9.3	20.7%
28	COc1ccc(-c2cc(C(=O)Nc3cc(C)ccc3O)no2)cc1	-6.1	-5.5	-2.5	0.7%
29	O=C(Nc1cccc(Cl)c1)Nc1sccc1-c1nc2ccccc2s1	-0.5	-6.1	8.3	x
30	O=C(CN1CCOCC1)Nc1nc2ccc(Br)cc2s1	-0.3	-13.9	2.0	-4.5%
31	COC(=O)c1scc(C)c1NC(=O)CSc1ccc(Cl)cc1	-0.5	-26.6	-4.9	11.5%
32	Cc1csc(SCC(=O)N(C)c2c(N)n(Cc3ccccc3)c(=O)[nH]c2=O)n1	-0.9	-1.5	-0.1	3.7%
33	O=C(NCc1ccc(F)cc1)c1noc2c1CCCCC2	x	-0.2	x	7.2%
34	Cc1ccc(C(=O)O/N=C(\c2ccccc2)c2ccncc2)cc1	0.2	4.1	0.0	5.7%
35	Cc1nn(C)c(C)c1NC(=O)/C(C#N)=C\N(C)C	-0.6	-2.0	-3.3	15.0%
36	O=C(CSc1nnnn1-c1cccc2ccccc12)Nc1ccc(N2CCOCC2)c(Cl)c1	0.0	-0.6	0.4	0.2%

No.	T cruzi inh	LANA-H2B inh	RanGTP-Impb inh	AF4-AF9 inh
25	-9.4	-1.4	1.9	-0.8
26	-2.9	0.1	6.4	-1.9
27	33.5	-2.9	1.1	x
28	-8.8	0.7	-1.3	-2.1
29	13.4	3.8	0.5	4.6
30	-7.4	2.3	3.4	x
31	15.1	5.1	2.3	-1.4
32	-14.9	2.2	5.5	-4.1
33	-9.6	x	5.9	4.2
34	-3.3	5.8	3.8	0.4
35	2.6	-3.5	2.2	-4.6
36	73.2*	15.2*	6.1	x

Following part.
No.	molecule	Bfl-1 A1 inh	Calb FLC	Beta apoptosis	Vif A3G
37	CCOc1ccc(CCNC(=O)COC(=O)C2CCN(S(=O)(=O)c3ccc(C)c(C)c3)CC2)cc1OCC	0.6	-1.3	-4.1	x
38	C=CCN(c1ccc(C(=O)Nc2ccc3c(c2)OCO3)cc1)S(C)(=O)=O	-0.5	-2.7	8.2	-4.0%
39	CCc1cccc(NC(=O)CN(C)S(=O)(=O)c2cccc3cccnc23)c1	-0.2	1.0	-2.4	5.8%
40	C=CCC[C@@H](Cc1ccc(F)cc1)C(=O)OC[C@@H](Cc1c[nH]c2ccccc12)NC(=O)[C@H](CC=C)CC(=O)NCCO	-0.5	x	-7.8	x
41	CC(=O)OC(C(=O)NC1CCCCC1)c1ccc(C#N)cc1 (stereo not drawn)	0.8	x	-6.2	-7.4%
42	CCOC(=O)c1cc2c(ccn2C)n1CC(=O)N(Cc1ccccc1)c1ccc(F)cc1	0.2	4.6	17.7	x
43	COCCn1c(SC)nnc1-c1c[nH]c2ccccc12	0.4	-2.6	-1.2	4.6%
44	CCCn1nnnc1SCC(=O)N1CCCC1	-0.9	-9.3	x	-1.1%
45	C=CC[C@@H](CC(=O)NCCO)C(=O)N[C@@H](COC(=O)[C@@H](CC=C)Cc1ccc(F)cc1)Cc1c[nH]c2ccccc12	0.4	x	-9.2	x
46	COc1ccc(/C=N/NC(=O)CNC(=O)/C=C/c2ccccc2OC)cc1	0.6	-2.9	-4.9	x
47	O=C(Nc1cccc(C(=O)O)c1)/C(=C\C=C\c1ccccc1)NC(=O)c1ccccc1	0.2	3.3	-6.9	2.7%
48	O=C(Cn1cnc([N+](=O)[O-])c1)NC1CCCC1	-0.3	32.7	-8.2	0.6%

No.	T cruzi inh	LANA-H2B inh	RanGTP-Impb inh	AF4-AF9 inh
37	-6.3	0.6	-3.4	0.5
38	-2.1	-10.0	3.4	0.1
39	1.7	-2.4	2.4	-10.0
40	x	-0.3	x	3.4
41	-3.3	-4.1	u	x
42	36.1	1.8	u	x
43	-9.3	-2.0	2.4	-3.5
44	-4.8	-5.9	1.3	x
45	x	-0.1	x	-6.7
46	8.8	-0.1	3.7	3.1
47	2.1	-4.4	2.7	-1.0
48	9.3	-1.0	-3.0	-2.8

The list continues.
No.	molecule	Bfl-1 A1 inh	Calb FLC	Beta apoptosis	Vif A3G
49	Cc1ccc(/C=C2\SC(=S)N(CCCC(=O)Nc3ccc(O)cc3)C2=O)cc1	-0.1	0.0	-1.0	-1.3%
50	Cn1c(=O)c2nc(-c3ccc(Cl)cc3Cl)oc2c2ccccc21	-0.3	7.3	x	u
51	CCOc1cc2[nH]c(=O)n(CCCC(=O)NCc3ccco3)c(=O)c2cc1OCC	1.0	-1.1	-0.7	-3.0%
52	COc1ccccc1-n1c(SCC(=O)O)nc2c(sc(=S)n2-c2ccccc2C)c1=O	0.7	-0.3	-2.6	1.5%

No.	T cruzi inh	LANA-H2B inh	RanGTP-Impb inh	AF4-AF9 inh
49	35.2	-0.2	2.5	3.4
50	6.5	-1.6	3.2	-7.8
51	-0.2	0.4	u	x
52	-9.0	2.9	-2.7	-2.2

Values in list order from the list:
Beta apoptosis, compounds 49 to 52, in order: -1.0, x, -0.7, -2.6
